# Source: PubChem BioAssay
# TRPML1 inh: qHTS for Inhibitors of the Human Mucolipin Transient Receptor Potential 1 (TRPML1) | 0.02% of 390,000 active | TRPML1-inducible cells, Ca2+ dye fluorescence, FDSS; stronger effect = lower value; inhibition of EC80 agonist-evoked calcium signal | Mucolipin-1 (Homo sapiens), Q9GZU1 | activity change, negative = inhibition, % (no concentration beside the values); in the data active means activity change below about -50%; inconclusive means about -30% to -50%; inactive means above about -30%;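 further: stimulus is agonist 54-4 at its EC80 concentration; on the % scale 0 is the no-effect control and ±100 the full control effect; compound concentration not given in the record; the text of the record puts the active cut at -80%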
#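 TRPML1-DL cells, Tet-induced overnight (~16 h, 37 °C) at 1,500 cells/well, were loaded with Ca8 no-wash dye plus quencher for 45-90 min at room temperature. Compounds were pinned during FDSS kinetic reading; agonist 54-4 at EC80 (4 uM final) then added.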
# Menin-MLL FL inh: qHTS Assay for Inhibitors Targeting the Menin-MLL Interaction in MLL Related Leukemias: Competition With Fluorescein Labeled MLL-derived Peptide; Fluorescence polarization, fluorescein-MLL peptide displacement from menin; FP activity change, % at 61.4 µM; 290,000 tested, under 10 active; inconclusive = falling polarisation curve, or a change in total fluorescence; inactive = total fluorescence flat and polarisation flat or rising; no compound was filed as active; the % refers to the polarisation; negative = inhibition;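 further: % of control where 0% means no effect; inhibitors lower the polarisation; unlabelled MLL peptide was the positive control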
# ClpP mod: qHTS Assay for Activators of ClpP; ATP-dependent Clp protease proteolytic subunit (Bacillus subtilis (strain 168)), P80244; purified B. subtilis ClpP, FRET peptide cleavage, 20 min; Potency, µM (titrated, usually from 57.5 µM), for the others: at the top dose activity change, negative = active; 1.9% of 340,000 active; AID 651965, 2013; active = well fitted falling curve with a large enough effect; inconclusive = small, poorly fitted or top-dose-only effect; inactive = no such curve, though single readings can be large or run the other way; further: potency means the concentration at half of the fitted maximal effect; the source files actives as falling curves though it sought activators and does not explain the sign; nearly all actives have a fitted effect of over 65% in size; many hits overshoot -100%
# Target sequence (P80244 whole entry, looked up): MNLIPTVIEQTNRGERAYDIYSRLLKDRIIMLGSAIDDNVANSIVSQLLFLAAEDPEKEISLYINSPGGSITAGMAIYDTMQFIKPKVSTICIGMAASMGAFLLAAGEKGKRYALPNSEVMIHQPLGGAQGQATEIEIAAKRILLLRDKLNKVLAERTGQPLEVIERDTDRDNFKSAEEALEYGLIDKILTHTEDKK
#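 ClpP 10 microg/mL final, pH 8 Tris/KCl buffer with BSA, glycerol, Tween-20; compound pinned in; FRET-FV substrate; RT 20 min; Ex320/Em430; ΔFRET vs ADEP 5.8 microM, DMSO, no enzyme.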
# gsp antagonist: qHTS for Antagonists of gsp, the Etiologic Mutation Responsible for Fibrous Dysplasia/McCune-Albright Syndrome: qHTS. gsp-mutant cells, cAMP HTRF, 30 min; control for the full effect not named in the record. Potency, µM (titrated, usually from 76.9 µM), for the others: top-dose activity change, negative = inhibition, hits mostly inhibitors. 0.4% of 340,000 active. AID 624288, 2012; active = falling curve of any shape with a large fitted effect; inconclusive = falling curve, mostly with a smaller effect; inactive = flat or rising curve; cell line not stated here;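 further: intracellular cAMP measured with PDE inhibitor Ro 20-1724 present during compound exposure; potency means the concentration at half of the fitted maximal effect; on the % scale 0 is the no-effect control and ±100 the full control effect; nearly all actives have a fitted effect of over 65% in size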
#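 HTRF cAMP measurement after 30 min RT detection following 30 min, 37C compound treatment alongside […] (added as 300 uM solution) in G418-selected cells seeded at 2000/well and grown 16–24 h.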
# Sfp PPTase inh: qHTS Assay for Inhibitors of Bacillus subtilis Sfp phosphopantetheinyl transferase (PPTase) | 3.5% of 310,000 active | Biochemical Sfp PPTase activity, qHTS | Potency, µM, for inactives: max response, negative = inhibition, usual class: inhibitors | 4'-phosphopantetheinyl transferase ffp (Bacillus subtilis), Q9F4F7; active means well fitted inhibition curve with a large enough effect; inconclusive means small, poorly fitted or top-dose-only effect, or another doubt; inactive means no such curve, though single readings can be large or run the other way;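 further: the enzyme is Sfp with the accession as filed and its product quenches rhodamine fluorescence; potency means the concentration at half of the fitted maximal effect; 0% = enzyme reaction without inhibitor and -100% = no enzyme wells; top concentration of the series not given in the record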
#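 Fluorescence-quenching assay: 15 nM Sfp-PPTase preincubated 15 min at room temperature with compound, then 5 uM rhodamine-CoA and 12.5 uM BHQ-2-labelled YbbR peptide added. Fluorescence (ex 525/em 598 nm) read at start and after 30 min; difference gives rate.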
# gsp ag: qHTS for Agonist of gsp, the Etiologic Mutation Responsible for Fibrous Dysplasia/McCune-Albright Syndrome: qHTS. gsp mutant cells, cAMP HTRF, 30 min; control for the full effect not named in the record. Potency, µM (top dose mostly 76.9 µM), for the others: at the top dose activation (cAMP increase), usual class: activators. 0.13% of 340,000 active; active = well fitted activation curve with a large enough effect; inconclusive = small, poorly fitted or top-dose-only effect, or another doubt; inactive = no such curve, though single readings can be large or run the other way; cell line not stated here;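 further: phosphodiesterase inhibitor Ro 20-1724 added with compounds to block cAMP breakdown; potency means the concentration at half of the fitted maximal effect; nearly all actives have a fitted effect of over 60% in size; about a fifth of the inactives were tested at one dose only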
#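 Cells stably selected in G418 were plated at 2000/well, grown 16-24 hr, then given compounds in DMSO with the PDE inhibitor […] (300 uM solution added) for 30 min at 37C; cAMP was read by HTRF.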
# TRPV1 PAM: HTS Assay for Compounds that Act as Potentiators of the Vanilloid Receptor 1; Transient receptor potential cation channel subfamily V member 1 (Homo sapiens), Q8NER1; TRPV1-expressing cells, Fluo-8 calcium influx, capsaicin EC20 potentiation; host cell line not named in the record; control for the full effect not named in the record; potentiation, % at 8.33 µM; 0.02% of 320,000 active; active means potentiation above 80%; inconclusive means 30% to 80%; inactive means below 30%; further: 0% is about no effect
# Target sequence (Q8NER1 whole entry, looked up): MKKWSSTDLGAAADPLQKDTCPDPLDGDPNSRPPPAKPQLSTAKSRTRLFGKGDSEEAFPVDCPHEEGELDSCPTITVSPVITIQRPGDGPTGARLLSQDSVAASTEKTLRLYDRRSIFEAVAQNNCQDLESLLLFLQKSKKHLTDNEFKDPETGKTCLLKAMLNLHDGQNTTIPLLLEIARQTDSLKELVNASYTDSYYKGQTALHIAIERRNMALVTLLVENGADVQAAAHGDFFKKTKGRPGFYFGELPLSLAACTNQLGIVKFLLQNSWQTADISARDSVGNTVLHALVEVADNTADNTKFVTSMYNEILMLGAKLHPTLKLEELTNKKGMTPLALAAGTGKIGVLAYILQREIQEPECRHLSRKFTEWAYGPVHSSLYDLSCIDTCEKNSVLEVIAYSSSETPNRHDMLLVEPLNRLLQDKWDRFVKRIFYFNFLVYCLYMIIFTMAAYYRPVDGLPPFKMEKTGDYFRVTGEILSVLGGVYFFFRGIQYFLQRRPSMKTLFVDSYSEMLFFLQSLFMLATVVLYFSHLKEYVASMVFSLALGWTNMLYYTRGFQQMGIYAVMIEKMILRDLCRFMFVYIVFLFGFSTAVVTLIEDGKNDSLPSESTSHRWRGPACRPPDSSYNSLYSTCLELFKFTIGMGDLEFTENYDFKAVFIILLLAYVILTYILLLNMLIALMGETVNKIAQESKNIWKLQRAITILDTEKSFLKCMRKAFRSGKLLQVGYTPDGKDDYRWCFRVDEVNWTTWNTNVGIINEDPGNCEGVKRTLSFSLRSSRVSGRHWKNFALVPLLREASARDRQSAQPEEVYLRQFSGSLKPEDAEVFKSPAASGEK
#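 Fluo-8 calcium influx in TRPV1-expressing cells, kinetic read (ex 480/em 520 nm). Compound added and read 3 min for agonist activity, followed by capsaicin at EC20 final and 2 min further read for enhancement.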
# Numbers without * were called inactive; ? = inconclusive; nt = not tested or not shown; & = joins results of further samples; [ ] = remark or other dose.
SMILES	TRPML1 inh	Menin-MLL FL inh	ClpP mod	gsp antagonist	Sfp PPTase inh	gsp ag	TRPV1 PAM
O=C(COc1ccc(Cl)cc1)Nc1ccc(NC(=O)c2ccco2)cc1	-13	-1.7	nt	15%	19%	-3%[15.4 µM]	1
CC(C)COc1ncnc2c1sc1nc3c(cc12)COC(C)(C)C3	nt	3.5	nt	nt	3%	nt	1
C/C(Cl)=C\COc1cc(C)nc2c(Br)cccc12	-4	1.3	nt	-6%	-3%	?	4
O=C(O)c1ccccc1C(=O)c1ccc(N2CCCC2)c([N+](=O)[O-])c1	-1	-1.2	nt	-13%	-18%	11%[15.4 µM]	3
CCC1(C)Cc2ccccc2-c2[nH]c(=S)[nH]c(=O)c21 (stereo not given)	4	1.1	nt	5%	16%	?	5
COc1ccccc1NC(=O)CCn1c(=S)oc2ccccc21	-17	9.2	-3.0%	-6%	12%	14%	28
CCOC(=O)c1ccccc1NC(=O)COC(=O)CCNS(=O)(=O)c1cccs1	-5	nt	-7.5%	-5%	nt	4%[15.4 µM]	3
Cc1cc(C(=O)CSc2nc3ccccc3n2C)c(C)n1C	-4	-0.8	-0.2%	-10%	2%	14%	3
CCC1NC(C(=O)O)Cc2c1[nH]c1ccccc21 (stereo not given)	15	nt	4.2%	1%	nt	14%	9
COc1ccc(C2C(C(C)=O)=C(O)C(=O)N2C)c(OC)c1 (stereo not given)	2	-1.1	-0.4%	0%	-9%	-6%	-6
CCOC(=O)c1cc2sc(C)cc2n1CC(=O)Nc1ccc2c(c1)OCCO2	6	0.1	4.6%	1%	9%	-1%	-1
O=C(COC(=O)c1ccc(S(=O)(=O)Nc2ccccc2)cc1)NCc1ccco1	-13	0.4	-3.3%	-21%	-7%	6%	-2
O=C(NCc1ccccc1Cl)c1ccc(Cn2cc(C(F)(F)F)ccc2=O)cc1	0	1.5	-2.6%	-6%	8%	33%	nt
Cc1ccc(C2C3=C(NCCN=C3c3ccccc3)C(=O)N2c2ccccc2)cc1 (stereo not given)	-6	2.0	-2.5%	1%	-2%	-3%	5
COc1ccc(C(C)C)cc1S(=O)(=O)N1CCC(C(=O)NCc2cccnc2)CC1	-8	-1.1	nt	7%	7%	-9%[15.4 µM]	-5

# The results go on.
SMILES	TRPML1 inh	Menin-MLL FL inh	ClpP mod	gsp antagonist	Sfp PPTase inh	gsp ag	TRPV1 PAM
O=S(=O)(NCc1ccccc1)c1ccc(F)cc1Br	0&1	-5.6&-0.1	0.7%	-11%	-15%&12%	-19%	-6
CCOC(=O)c1cnc(SC2CCc3ccccc3C2=O)nc1N (stereo not given)	-2	-1.7	-7.7%	-11%	56µM*	6%	0
O=C1N(c2ccccc2)C[C@@H]2C[C@@H](c3cccs3)N3CCC[C@@]123	-9	3.6	0.0%	-5%	-1%	-24%	4
CCN(CC)c1ccc(NC(=O)COC(=O)c2cccs2)cc1	-10	2.5	0.3%	-9%	-6%	-25%	3
Cc1cc(OCCOCCNC(C)C)cc(C)c1Cl	5	15	0.1%	9%	-26%	?	2
COc1ccc(C2=NOC(C(=O)Nc3cccnc3Cl)C2)cc1 (stereo not given)	36	0.0	0.9%	38%[activator]	-3%	5%	-10
COC(=O)c1ccc(CSc2nc3ccccc3c(=O)n2Cc2ccco2)o1	4	2.1	-4.4%	-22%	16%	-1%	8
COc1cc(NC(=O)c2ccccc2)c(OC)cc1NC(=O)CN1C(=O)NC2(CCCCC2C)C1=O (stereo not given)	37	nt	1.1%	-12%	nt	13%	0
Cc1ccsc1C(=O)N[C@@H](C)c1nnc2ccccn12	1	nt	-3.5%	2%	16%	1%	?
Cc1cc(C(=O)OCC(=O)Nc2c(Cl)cccc2C(F)(F)F)c(C)o1	-4	nt	-0.7%	6%	nt	-3%	-1
Cc1ccc(C(=O)N2CCN(c3ccc(C(F)(F)F)cn3)CC2)o1	8	nt	-14%	9%	nt	-19%	nt
S=c1[nH]c(-c2ccccc2)cn1/N=C/c1ccncc1	-2	0.9	nt	-21%	79µM*	-20%[15.4 µM]	-2
O=C(Cc1ccc(NS(=O)(=O)c2ccc(F)cc2)cc1)NCc1cccnc1	21	2.3	nt	12%	8%	-32%	15
Cc1cnc(N2C(=O)c3ccc([N+](=O)[O-])cc3C2=O)s1	20	3.4	nt	-6%	-4%	5%[15.4 µM]	1
CCCn1c(=O)c(C(=O)NCc2ccc(OC)c(OC)c2)c(O)c2ccccc21	5	0.2	-6.9%	-1%	?	10%	2

# Gathered by group, those above with an aryl thioether with sulfur outside any ring
SMILES	TRPML1 inh	Menin-MLL FL inh	ClpP mod	gsp antagonist	Sfp PPTase inh	gsp ag	TRPV1 PAM
Cc1cc(C(=O)CSc2nc3ccccc3n2C)c(C)n1C	-4	-0.8	-0.2%	-10%	2%	14%	3
CCOC(=O)c1cnc(SC2CCc3ccccc3C2=O)nc1N (stereo not given)	-2	-1.7	-7.7%	-11%	56µM*	6%	0
COC(=O)c1ccc(CSc2nc3ccccc3c(=O)n2Cc2ccco2)o1	4	2.1	-4.4%	-22%	16%	-1%	8

# (list continues)
# Order of values – TRPML1 inh	Menin-MLL FL inh	ClpP mod	gsp antagonist	Sfp PPTase inh	gsp ag	TRPV1 PAM
Cc1ccc2c(c1)N(CC(=O)NCC1CCCO1)C(=O)C(C(C)C)O2 (stereo not given)
  6	nt	nt	2%	7%	6%[15.4 µM]	-11
Cc1ccc(NC(=O)Cn2c3ccc(F)cc3c3nc4n(c(=O)c32)CCS4)cc1F
  12	-0.5	2.1%	?	-21%	21%[15.4 µM]	18
CC(C)CN(C(=O)CC(C)c1ccccc1)c1c(N)n(Cc2ccccc2)c(=O)[nH]c1=O (stereo not given)
  0	nt	0.6%	-1%	nt	-36%[inhibitor]	3
COc1ccc(/C=N/NC(=O)c2cccc(NC(=O)c3ccccc3)c2)c(C(=O)O)c1OC
  36	2.0	-3.6%	10%	39%[activator]	2%	-9
COc1cc(NC(=O)COc2ccccc2[N+](=O)[O-])ccc1NC(=O)c1ccco1
  -4	nt	-0.5%	0%	4%	?	-2
CCCCn1c(SCC(=O)Nc2cc(C)on2)nc2cc(S(N)(=O)=O)ccc21
  17	nt	-2.6%	-21%	nt	-12%	21
COc1ccccc1/C=N\Nc1cc(C)nc(-n2nc(C)cc2C)n1
  10	3.2	-25%	?	11%	-34%[inhibitor]	13
Cc1cccc(C)c1NC(=O)c1ccc2c(c1)CCN2S(C)(=O)=O
  -20	2.9	nt	-2%	15%	-6%[15.4 µM]	-6
CCn1c(NC(=O)C(C)C)c2ccccc2nc1=O
  3	0.9	?	12%	16%	?	4
O=C(Nc1ccc(Cl)c(S(=O)(=O)N2CCOCC2)c1)c1ccc(OCC2CCCO2)cc1 (stereo not given)
  28	-0.6	nt	32µM*	-10%	-32%[inhibitor]	20
O=C(NCc1ccccc1)c1cccc(COc2ccccc2Cl)c1
  1	1.0	-2.1%	-14%	18%	-49%[inhibitor]	4
CC1CCCCN1CC(O)COCCC12CC3CC(CC(C3)C1)C2 (stereo not given)
  4	0.6	-2.1%	7%	-1%	?	-5
O=C(Cn1cc(Br)ccc1=O)Nc1ccc2c(c1)OCO2
  8	nt	0.9%	-3%	nt	-15%	13
CC(=O)N1CC=CC1(CC(C)C)C(=O)NCc1cc(F)cc(C(F)(F)F)c1 (stereo not given)
  -3	3.7&-5.6	0.5%	12%	30%&19%	nt	1
COc1ccc(NC(=O)CN2CCN(C(=S)NC3CCCC3)CC2)cc1
  -24	-1.2	0.0%	1%	17%	-4%[15.4 µM]	-8

# Further records follow.
# Order of values – TRPML1 inh	Menin-MLL FL inh	ClpP mod	gsp antagonist	Sfp PPTase inh	gsp ag	TRPV1 PAM
Cc1cc(=O)n(C2CCS(=O)(=O)C2)[nH]1 (stereo not given)
  -8	4.1	nt	10%	-4%	0%	-8
COc1nc(N/N=C/c2ccc(-c3cccc([N+](=O)[O-])c3)o2)nc(N2CCOCC2)n1
  nt	1.3	nt	nt	-2%	nt	-14
COc1cccc(C2C(C#N)=C(N)N(N(C)C)C3=C2C(=O)CC(C)(C)C3)c1 (stereo not given)
  0	1.0	nt	-5%	-21%	0%	-16
COc1cc(CCC(=O)OCC(=O)Nc2ncc(Cl)cc2Cl)cc(OC)c1OC
  7	3.0	92%	-6%	7%	?	5
Cc1cc(C)nc(NS(=O)(=O)c2ccc(NC(=O)c3ccco3)cc2)n1
  9	1.5	0.8%	-7%	23%	?	13
N#C/C(=C(/O)c1ccc(Br)s1)c1nc2ccccc2[nH]1
  -2	-2.6	-11%	?	17%	?	23
COc1ccccc1NC(CC(=O)c1ccccc1)C(=O)OCC(=O)c1ccc(C)c(C)c1 (stereo not given)
  26	3.1	0.7%	1%	-8%	12%	2
CCOC(=O)C1CCN(S(=O)(=O)c2ccc(NC(C)=O)c(Cl)c2)CC1
  5	0.2	nt	-7%	5%	-3%[15.4 µM]	-9
Cc1cc(=O)n(-c2ccc(C(=O)O)cc2)[nH]1
  31	-3.9	-0.5%	3%	11%	25%	-7
CC1CN(C(=O)c2cccc(C(=O)N3CC(C)OC(C)C3)c2)CC(C)O1 (stereo not given)
  18	4.1	-1.4%	0%[15.4 µM]	11%	1%	-2
